D2 PAM – human D2 receptor positive allosteric modulation | DiscoveRx D2 beta-arrestin cells, luminescence, 90 min; 100% = 57 uM dopamine signal | P14416 | 0.23% of 360,000 active | AID 624464 | potentiation, % (no concentration beside the values); active = potentiation of 50% or more; inconclusive = 30% to 50%; inactive = 30% or less;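 note: compound concentration not given in the record; tested on top of an EC20 dose of dopamine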
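PathHunter beta-arrestin assay in DiscoveRx D2 cells. Compounds were added with an EC20 of dopamine (50 nM final) for 90 min at 37 deg C. Luminescence was read 1 h after detection reagent, with 57 uM dopamine as the EC100 control.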
CtBP-E1A blk – blocks the CtBP interaction with E1A | AlphaScreen GST-E1A/His-CtBP binding, 1536-well; active compounds read low; control for the full effect not named in the record | activity change, % (concentration not given with the values) | 0.49% of 340,000 active; in the data active means activity change below about -65%; inconclusive means about -30% to -65%; inactive means above about -30%; note: % is set by controls: 0 for no effect and ±100 for the full control effect
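Steps: dispense buffer (Tris pH 8.0, NaCl 300 mM, TCEP 1 mM, BSA, Tween 20); add 5X protein mix (GST-E1A, His-CtBP, 125 nM each); pin 23 nL compound; 2 h at 37 °C, dark; add 5X beads (50 ug/mL); 1 h; read.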
D2 ag – activates the human D2 dopamine receptor | P14416 | DiscoveRx PathHunter D2 beta-arrestin, luminescence, 90 min; 100% = 57 uM dopamine signal | activation, % (test concentration not listed) | 0.084% of 360,000 active; in the data active = activation above about 40%; inconclusive = about 15% to 40%; inactive = below about 15%; note: compound concentration not given in the record; the text of the record calls up to 30% inactive
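Agonist mode: compounds alone added to overnight-plated D2 PathHunter cells for 90 min at 37 C, with 57 uM final dopamine (EC100) defining full response. Beta-arrestin recruitment detected by chemiluminescent reagent, read after 1 h at ambient temperature.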
Six1-Eya2 inh – blocks human Six1 binding to Eya2. AlphaScreen GST-Six1/His-Eya2 binding, biochemical; active compounds read low; control for the full effect not named in the record. Q15475+O00167. activity change, % (no concentration beside the values). 0.56% of 360,000 active; in the data active = activity change below about -65%; inconclusive = about -30% to -65%; inactive = above about -30%; note: % is set by controls: 0 for no effect and ±100 for the full control effect
Target sequence (O00167 whole entry, looked up): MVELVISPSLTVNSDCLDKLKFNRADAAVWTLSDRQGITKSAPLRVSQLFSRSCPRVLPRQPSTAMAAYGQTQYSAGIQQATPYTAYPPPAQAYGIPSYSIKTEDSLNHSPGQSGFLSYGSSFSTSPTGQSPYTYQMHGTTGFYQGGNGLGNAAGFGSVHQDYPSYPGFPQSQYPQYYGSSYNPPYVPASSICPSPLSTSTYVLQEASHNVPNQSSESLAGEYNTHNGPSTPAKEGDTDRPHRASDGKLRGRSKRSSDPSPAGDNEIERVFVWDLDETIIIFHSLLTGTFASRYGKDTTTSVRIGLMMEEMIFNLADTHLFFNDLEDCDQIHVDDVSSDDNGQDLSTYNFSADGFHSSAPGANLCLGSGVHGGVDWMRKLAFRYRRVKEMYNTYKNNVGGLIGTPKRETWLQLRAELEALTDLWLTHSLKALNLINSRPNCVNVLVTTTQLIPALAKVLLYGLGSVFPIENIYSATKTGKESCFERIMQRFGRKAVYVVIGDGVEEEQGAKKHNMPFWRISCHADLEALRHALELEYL
Target sequence (Q15475 whole entry, looked up): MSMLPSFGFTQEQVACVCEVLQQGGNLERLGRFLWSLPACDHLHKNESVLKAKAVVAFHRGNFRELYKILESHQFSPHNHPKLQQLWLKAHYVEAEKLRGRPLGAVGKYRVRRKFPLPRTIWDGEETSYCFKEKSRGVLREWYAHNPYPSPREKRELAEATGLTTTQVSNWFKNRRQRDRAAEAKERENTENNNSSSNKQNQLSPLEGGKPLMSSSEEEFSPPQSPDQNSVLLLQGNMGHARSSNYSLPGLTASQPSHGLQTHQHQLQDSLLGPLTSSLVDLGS
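AlphaScreen with GST-Six1 and His-Eya2 (5X mix: 250 nM and 500 nM), glutathione donor and nickel acceptor beads; buffer 50 mM Tris pH 8.0, 300 mM NaCl, 1 mM TCEP; 1 h at 37 C in the dark.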
gsp antag – gsp mutant antagonism | Potency, µM (titrated, usually from 76.9 µM), for the others: at the highest dose activity change, negative = inhibition, actives largely listed as inhibitors | 0.4% of 340,000 active | gsp-mutant cells, cAMP HTRF, 30 min; control for the full effect not named in the record; active = falling curve of any shape with a large fitted effect; inconclusive = falling curve, mostly with a smaller effect; inactive = flat or rising curve; cell line not stated here;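 note: intracellular cAMP measured with PDE inhibitor Ro 20-1724 present during compound exposure; potency is the fitted concentration of half-maximal effect; % is set by controls: 0 for no effect and ±100 for the full control effect; nearly all actives have a fitted effect of over 65% in size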
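Cells, 2000/well, grown 16–24 h in DMEM 10% FBS with 0.5 mg/ml G418, then compounds plus […] (300 uM addition stock), 30 min at 37C. cAMP read by HTRF (cAMP-d2 and anti-cAMP antibody-K in lysis buffer) after 30 min RT.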
gsp agonist – gsp mutant agonism | Potency, µM (doses to about 76.9 µM), for the others: at the top dose activation (cAMP increase), most hits filed as activators | AID 624287 | gsp mutant cells, cAMP HTRF, 30 min; control for the full effect not named in the record | 0.13% of 340,000 active; active = well fitted activation curve with a large enough effect; inconclusive = small, poorly fitted or top-dose-only effect, or another doubt; inactive = no such curve, though single readings can be large or run the other way; cell line not stated here;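 note: phosphodiesterase inhibitor Ro 20-1724 added with compounds to block cAMP breakdown; potency is the fitted concentration of half-maximal effect; nearly all actives have a fitted effect of over 60% in size; about a fifth of the inactives were tested at one dose only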
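Cells stably selected in G418 were plated at 2000/well, grown 16-24 hr, then given compounds in DMSO with the PDE inhibitor […] (300 uM solution added) for 30 min at 37C; cAMP was read by HTRF.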
The depositor's hits bear a star; ? = inconclusive; . = not tested or not shown; [ ] = remark or other dose.

SMILES	D2 PAM	CtBP-E1A blk	D2 ag	Six1-Eya2 inh	gsp antag	gsp agonist
CCN(CC)S(=O)(=O)c1ccc(Cl)c(OC)c1	0	-4	-0.2	15	-7%	16%
CCOCc1nc(C)c(Cl)c(NS(=O)(=O)c2ccc(N)cc2)n1	-33	-4	-2.7	-2	-1%	-22%
O=C(CSc1nnc2c(n1)[nH]c1ccccc12)N1CCCCC1	-5	?	4.7	?	0%	?
CNC(=O)CSCCn1c(SCC(=O)NC)nc2ccccc2c1=O	-4	7	-1.5	4	-2%	16%
COc1ccc2[nH]c(C)cc(=O)c2c1	-11	8	-3.3	4	4%	-25%
Cc1ccc(S(=O)(=O)N2CCN(C(=O)C(Cc3ccccc3)NC(=O)c3ccccc3)CC2)cc1 (stereo not drawn)	1	.	-3.9	7	8%	-19%
O=C(CN(Cc1ccccc1)C(=O)CCC(=O)Nc1nccs1)NCc1ccc(F)cc1	-2	-2	-3.2	0	0%	-5%[15.4 µM]
CCc1cc(C(=O)c2ccccc2OC)c(N)s1	-10	21	-1.0	-19	-15%	11%
O=C(COc1cc2oc(=O)c3c(c2cc1Cl)CCC3)NCC(O)c1ccccc1 (stereo not drawn)	-15	-3	3.5	-6	-27%	-33%[inhibitor]
COC(=O)c1ccc(OCCOc2ccccc2C)cc1	-6	31	-2.7	27	-3%	8%[15.4 µM]
CCCCn1c(SCN2C(=O)c3ccccc3C2=O)nc2cc(S(N)(=O)=O)ccc21	-3	-1	-2.8	2	1%	-44%[inhibitor]
Cc1cc(S(=O)(=O)NCCCN2CCOCC2)c(Cl)cc1Cl	-6	3	-2.4	0	13%	19%
Clc1ccc(/C=N/Nc2ncnc3nc[nH]c23)cc1	4	?	3.1	?	9%	1%[15.4 µM]
CCOc1ccc(C(=O)NCC(=O)OCCCOC(=O)CNC(=O)c2ccc(OCC)cc2)cc1	8	5	0.9	-1	8%	-13%
COc1c(C)cc(Br)cc1C(=O)NC(=S)NCc1ccco1	-13	15	-4.7	7	-11%	-17%
CC(C)c1cc(NCC2CCCO2)n2c(nc3ccccc32)c1C#N (stereo not drawn)	6	-2	-0.5	3	3%	9%
CC(C)CCOc1ccc(C2CC(=O)N(C)C2=O)cc1 (stereo not drawn)	-5	-2	-0.8	3	4%	1%
N#C/C(=C\c1ccc(F)cc1)c1n[nH]c(Cn2cncn2)n1	-13	-1	-3.4	5	-3%	-5%
Cc1cccnc1C(NC(=O)C1CCN(Cc2ccc(Oc3ccccc3)cc2)CC1)c1ccccc1 (stereo not drawn)	-18	-24	-7.6	-16	.	.
Cc1cc(C)n2cc(COc3ccccc3)nc2n1	-14	-6	-0.2	-6	10%	0%

Profiles, looked up by structure. Values in the order: D2 PAM, CtBP-E1A blk, D2 ag, Six1-Eya2 inh, gsp antag, gsp agonist
O=C(COc1cc2oc(=O)c3c(c2cc1Cl)CCC3)NCC(O)c1ccccc1 (stereo not drawn) is entered as -15, -3, 3.5, -6, -27%, -33%[inhibitor]
COC(=O)c1ccc(OCCOc2ccccc2C)cc1 is entered as -6, 31, -2.7, 27, -3%, 8%[15.4 µM]
CC(C)CCOc1ccc(C2CC(=O)N(C)C2=O)cc1 (stereo not drawn) is entered as -5, -2, -0.8, 3, 4%, 1%
CCN(CC)S(=O)(=O)c1ccc(Cl)c(OC)c1 is entered as 0, -4, -0.2, 15, -7%, 16%
O=C(CSc1nnc2c(n1)[nH]c1ccccc12)N1CCCCC1 is entered as -5, ?, 4.7, ?, 0%, ?

Continuation:
SMILES	D2 PAM	CtBP-E1A blk	D2 ag	Six1-Eya2 inh	gsp antag	gsp agonist
O=[N+]([O-])c1ccc(C2CCCC/C2=N/O)c([N+](=O)[O-])c1 (stereo not drawn)	5	0	13	7	1%	-22%
Cc1c(-c2nc3ccccc3[nH]2)cnn1C	-2	5	6.7	1	8%	-1%
CCC(C)(C)NC(=O)C1CC(=O)N(CCc2ccc(F)cc2)C1 (stereo not drawn)	-20	0	1.5	6	1%	-2%[15.4 µM]
CCC(C)NS(=O)(=O)c1ccc(NC(=O)Cc2ccc(OC)cc2)cc1 (stereo not drawn)	-29	-3	-0.9	22	.	11%[15.4 µM]
CC(=O)Oc1c(C(=O)c2nnc(C)o2)c(=O)n(Cc2ccccc2)c2ccccc12	-8	-3	-5.1	-10	7%	-28%
CN(Cc1nc2ccccc2c(=O)[nH]1)Cc1cc(=O)oc2ccc3ccccc3c12	-14	-11	-2.1	-9	-14%	6%
Nc1c(C(=O)NCc2ccco2)c2nc3ccccc3nc2n1CCc1ccccc1F	-11	0	-3.1	2	-14%	-19%
CC(C)C(NC(=O)c1ccc(C(C)(C)C)cc1)C(=O)NCC(c1ccccc1)N(C)C (stereo not drawn)	-26	.	-1.5	-15	6%	-2%
COc1ccc(N2CCN(C(=O)CN3C(=O)NC(C)(C4CC4)C3=O)CC2)cc1 (stereo not drawn)	-3	.	0.1	0	-3%	-23%
CN(C)S(=O)(=O)c1cccc(C(=O)NC(=S)N(CCC#N)Cc2cccnc2)c1	-5	-7	-4.0	0	4%	16%[15.4 µM]
COCCCN1CC23C=CC(O2)C(C(=O)O)C3C1=O (stereo not drawn)	-4	7	-1.8	1	10%	-54%[inhibitor]
CC(=O)COc1ccc2c3c(c(=O)oc2c1C)CCCCC3	3	0	1.2	24	-28%	-11%
Cc1ccc(C2CC(=O)C(C=NCCN3CCN(C(=S)Nc4ccccc4)CC3)=C(O)C2)cc1 (stereo not drawn)	-11	1	-1.6	-2	-22%	-11%[15.4 µM]
CCOC(=O)C1C(=O)NC(C(=O)OCC)(C(=O)OCC)C1C(C)CC (stereo not drawn)	3	7	6.5	7	1%	12%
CCOC(=O)C1=C(C)NC(C)=C(C(=O)OCC)C1c1ccco1	-17	.	-4.4	-10	5%	9%
Cc1c(C(=O)Nc2ccc(S(=O)(=O)Nc3ncccn3)cc2)oc2ccc(Cl)cc12	-3	4	-3.5	-2	-21%	-11%
CC1CCN(S(=O)(=O)N2CCCC(C(=O)NCc3ccccc3Cl)C2)CC1 (stereo not drawn)	-5	-7	-5.0	0	2%	?
CCOc1ccccc1N1CC(C(=O)Nc2ccccc2N2CCOCC2)CC1=O (stereo not drawn)	3	9	-2.6	2	10%	-12%
O=C(Nc1ccc(Cl)cn1)c1ccc(COCC(F)(F)C(F)F)o1	-2	-22	-1.7	2	-13%	-37%[inhibitor]
CCN1CCC2(CC1)N=C(c1ccc(F)cc1)C(=S)N2C(=O)c1ccc(C(C)(C)C)cc1	-5	3	-1.0	0	10%	-2%
O=C(COc1ccccc1F)NNC(=O)c1ccc2c(=O)n3c(nc2c1)CCC3	1	-2	1.7	?	-2%	4%
CCOC(=O)C1=C(C)N(C)C(C)=C(C(=O)OCC)C1c1cccnc1	1	0	-5.7	2	-1%	-31%[inhibitor]
CCn1c(O)c(N=NC(=O)Cc2csc(N3CCOCC3)n2)c2ccccc21	-14	5	-4.2	-29	-1%	15%[15.4 µM]
O=C1NC[C@H](Cc2ccccc2)N(C[C@H]2CCCN2C[C@H](Cc2ccccc2)N2C[C@H](Cc3ccc(O)cc3)N(CC3CCCCCC3)C(=O)C2=O)C1=O	4	-6	-1.0	-9	-22%	.
Cc1cc(NC(=O)CSc2ncccc2C(=O)O)no1	2	-5	-1.7	10	13%	-1%[15.4 µM]
O=C(Cc1ccccc1F)Nc1ccc(SC(F)F)cc1	-8	2	-4.9	2	21%	-16%
CC1CCCN(C(=O)c2sc3cc([N+](=O)[O-])ccc3c2Cl)C1 (stereo not drawn)	5	-21	0.0	-23	?	?
O=C(Cn1c(=O)ccn(Cc2ccccc2)c1=O)Nc1cccc(S(=O)(=O)N2CCOCC2)c1	-10	0	0.3	-5	-7%	1%[15.4 µM]
O=C(C1=NNCC1c1ccc(Cl)cc1)C1CO1 (stereo not drawn)	-5	-11	-2.1	-2	9%	?
C/C(=N/NS(=O)(=O)c1ccccc1)c1ccc(NC(=O)C2CC2)cc1	-5	-1	-4.7	10	-10%	-3%[15.4 µM]
COC(=O)[C@]1(C)N[C@H](CN(C)C(=O)c2ccc(F)cc2)[C@@H]2C(=O)N(C)C(=O)[C@@H]21	-5	-22	-2.0	4	-6%	.
Nc1nc(Nc2ccccc2F)nc(NC2CCCCC2)c1[N+](=O)[O-]	-7	-23	-2.7	-29	-2%	5%[15.4 µM]
Cc1ccc(C)c(N2CCN(Cc3nnnn3C3CCCCC3)CC2)c1	-8	-3	-2.3	10	-4%	-2%
COc1ccc(CN(CC(=O)NC2CCCC2)C(=O)CN2C(=O)COc3ccccc32)cc1	-4	4	-1.6	0	-2%	5%[15.4 µM]
O=C(Nc1ccc(Cl)cc1)Nc1ccccc1Sc1ncc([N+](=O)[O-])s1	3	-13	0.2	-27	7%	44%
C=CCOc1c(Br)cc(C2C3=C(CCCC3=O)N(C)C3=C2C(=O)CCC3)cc1OCC	-1	10	-2.5	2	?	20%[15.4 µM]
COCCNC(=S)N/N=C/c1ccc(OCc2ccc(C(=O)OC)cc2)cc1	2	0	-1.5	8	0%	13%
CCC(=O)N(Cc1cc2c(C)cc(C)cc2[nH]c1=O)C1CCCCC1	-18	3	-4.2	-4	-7%	1%
CC(=O)c1ccc(OCCn2c(SCC(=O)O)nc3ccccc32)cc1	-3	-11	-5.6	-3	7%	-28%
O=C(CNC(=O)c1ccccc1F)NCc1ccncc1	-9	8	-1.3	6	10%	-1%[15.4 µM]
COC(=O)c1ccc2c(=O)n(CCCCCC(=O)O)c(=O)[nH]c2c1	-8	25	-4.5	10	6%	-19%
Cn1c(=O)n(CCc2ccccc2)c(=O)c2c1nc1n2CCCN1c1ccccc1	-5	11	1.8	6	-13%	-3%
Cc1cccc[n+]1CC(=O)c1ccc([N+](=O)[O-])cc1	3	3	-2.0	-3	4%	19%
C[C@H](CO)N1C[C@H](C)[C@H](CN(C)S(=O)(=O)c2ccc3ccccc3c2)OCc2cnnn2CCCC1=O	-6	-10	-3.3	-15	.	?
Cc1ccccc1-n1cc(CNC(=O)CC2C(=O)NCCN2C/C=C/c2ccccc2)cn1 (stereo not drawn)	-2	5	1.3	-2	-6%	?
C=CCn1c(O)c(N=NC(=O)c2ccccc2NS(=O)(=O)c2cccs2)c2ccccc21	-13	-13	-4.1	?	4%	?
COc1ccccc1N1C(=O)c2ccccc2NC1c1ccc(O)cc1 (stereo not drawn)	-9	-5	-4.4	5	3%	?
Cc1cc2oc(C(=O)NCc3ccncc3)c(C)c2cc1C	-4	-1	-30	-7	7%	?
CN(C)/C=C/C(=O)c1ccc(OCCN(C)c2ccccn2)cc1	-20	.	4.7	-9	?	?
COc1cccc(C(=O)C2CCCN(C/C=C/c3ccccc3OC)C2)c1 (stereo not drawn)	-2	-9	1.4	-7	4%	-12%
CCCCC(CCC(=O)Nc1cc([N+](=O)[O-])ccc1O)C(=O)O (stereo not drawn)	-14	-1	-5.7	-1	9%	-8%[15.4 µM]
